Screens from PubChem BioAssay.
Anthrax LT inh: blocks cellular internalization of anthrax lethal toxin | Cells, anthrax lethal toxin internalization, FRET ratio (460/530) | Potency, µM (highest dose often 40 µM), for inactives: at the top dose activity change, negative = inhibition, actives largely listed as inhibitors | 70,000 tested, 0.67% active; active = well fitted falling ratio curve with the 530 nm signal flat; inconclusive = other ratio curves, or a change in one channel alone; inactive = flat curves in the ratio and both channels; the % refers to the ratio; further: on the % scale 0 is the no-effect control and ±100 the full control effect; nearly all actives have a fitted effect of over 50% in size; tested in ME-180 cells; beta-lactamase reporter
SmPrx2 inh: inhibitors of Schistosoma mansoni peroxiredoxin 2. S. mansoni Prx2 activity coupled to TGR/GSH (TGR is thioredoxin glutathione reductase), NADPH fluorescence loss, qHTS; some inactives read as strong as hits. Potency, µM. 65,000 tested, 0.07% active; active means full or partial inhibition curve with a strong effect at the top dose; inconclusive means weaker partial or single-point curve; inactive means no accepted curve; further: series up to 57 µM; many of its hits are not listed in these tables
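Prx2 activity was followed as the loss of NADPH fluorescence (ex 365/em 450 nm), read every 30 sec for 8 min after H2O2 start. The enzyme mix (50 nM Prx2, 25 nM TGR, GSH, NADPH; pH 7.4 phosphate buffer) was incubated with compound for 15 min at room temperature first.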
* = called active by the depositor; ? = inconclusive; . = no result given; & = joins results of further samples; [ ] = another dose, or the depositor's remark. Potency means the concentration at half of the fitted maximal effect. These rows are one share of the data (hit frequency here may not be typical).

SMILES	Anthrax LT inh	SmPrx2 inh
Cn1c(C(=O)N2CCC(C(N)=O)CC2)cc2c(=O)n(C)c3ccccc3c21	15%	>57
CCOCCCNS(=O)(=O)c1ccc(NC(=O)c2ccccc2)cc1	1%	>57
CCOP(=O)(c1c(F)c(F)c(F)c(F)c1F)C(O)c1ccccc1 (configuration not stated)	20%	>57
O=C(O)/C=C\C(=O)N1Cc2cc3ccccc3nc2C1	5%[8 µM]	>57
COc1ccc(N2CCN(C(=O)c3ccc4c(c3)OCO4)CC2)cc1	-8%	>57
COc1ccc(S(=O)(=O)N(C)CC(=O)N2CCCCC2)cc1Cl	4%	>57
Cc1cc(=O)[nH]c(SCC(=O)NCCOc2ccccc2)n1	-1%	.
O=C(NCCC1=CCCCC1)c1ccc2c(=O)n3c(nc2c1)CCCCC3	13µM*	>57
CCOC(=O)c1sc(NC(=O)C(CC)Sc2nccn2C)nc1C (configuration not stated)	-10%	.
CS(=O)(=O)c1ccc2nc(NC(=O)c3ccco3)sc2c1	9%	>57
CCN(CC)S(=O)(=O)c1ccc2oc(C(=O)NCc3ccc(F)cc3)c(C)c2c1	-14%	>57
CN1CCN(c2nc(-c3cccnc3)nc3ccccc23)CC1	-2%&10%	>57&>57

Compound profiles (already shown). Order of screens: Anthrax LT inh | SmPrx2 inh
Listed for CS(=O)(=O)c1ccc2nc(NC(=O)c3ccco3)sc2c1 : 9% | >57
Listed for COc1ccc(S(=O)(=O)N(C)CC(=O)N2CCCCC2)cc1Cl : 4% | >57
Listed for CCOC(=O)c1sc(NC(=O)C(CC)Sc2nccn2C)nc1C (configuration not stated) : -10% | .
Listed for CCOP(=O)(c1c(F)c(F)c(F)c(F)c1F)C(O)c1ccccc1 (configuration not stated) : 20% | >57
Listed for COc1ccc(N2CCN(C(=O)c3ccc4c(c3)OCO4)CC2)cc1 : -8% | >57

Remaining list, next part
SMILES	Anthrax LT inh	SmPrx2 inh
CS(=O)(=O)N1CCC[C@@]2(CCN(c3ccccn3)C2)C1	?	>57
CCSc1cc(C2C(C#N)=C(N)Oc3n[nH]c(C)c32)c(C)o1 (configuration not stated)	1%	>57
O=C1c2oc3ccccc3c(=O)c2C(c2cccnc2)N1Cc1ccco1 (configuration not stated)	?	>57
COc1ccc(C)cc1NC(=O)CN1CCN(c2ccccc2F)CC1	-10%	>57
Cn1c(=O)[nH]c(=O)c2c1nc(Br)n2Cc1ccccc1F	-9%	>57
CN1C2C=C(N(C(=O)c3ccc(Cl)cc3)c3ccccc3)CC1CC2 (configuration not stated)	1%	>57
Cn1c(-c2c(N)n(C3CCCC3)c3nc4ccccc4nc23)nc2ccccc21	?	>57
NCCC[C@@](N)(C(=O)O)C(F)F	-3%	>57
COc1ccc(CNn2c(C)nc3ccccc3c2=O)cc1	-13%	>57
CCOC(=O)CCCNC(=O)CCNC(=O)c1ccc(OC(C)C)cc1	2%	.
CS(C)(=O)=NS(=O)(=O)c1ccc(Cl)cc1	4%	>57
COc1ccc2cc(CN(Cc3ccco3)Cc3nnnn3C3CCCCC3)c(=O)[nH]c2c1	-13%	>57
CN(C)c1cc2c(Nc3ccc4c(cnn4Cc4ccccc4)c3)ncnc2cn1	?	>57
Clc1ccc([C@H](Cn2ccnc2)OCc2csc3c(Cl)cccc23)c(Cl)c1	-7%[3.58 µM]	>57
c1ccc(OCc2nc3ccccc3s2)cc1	-17%	>57
COc1ccc(C(NC(=O)CNC(C)=O)C(=O)Nc2ccc3c(c2)OCCO3)cc1 (configuration not stated)	-7%	>57
O=P(O)(O)Cc1ccccc1OP(=O)(c1ccccc1)c1ccccc1	0%	>57
CCOc1cc2[nH]c(=O)n(CCCCC(=O)NC3CCCCCC3)c(=O)c2cc1OCC	3%	>57
Cc1c(C(=O)NCc2ccc3c(c2)OCO3)oc2ccc(S(=O)(=O)N3CCC(C)CC3)cc12	-14%	>57
O=C(CCS(=O)(=O)c1cccc2nsnc12)N1CC(=O)N(CCc2ccccc2)C(=O)C1	-3%	>57
Cc1nn2c(NCCCN3CCOCC3)c3c(nc2c1-c1ccccc1)CCC3	-14%	.
COc1ccc(C(=O)Nc2cc(C)on2)cc1	-31%	>57
CCOc1ccc(-c2csc(NC(=O)C3CCCO3)n2)cc1 (configuration not stated)	-12%	>57
CCCC(=O)Nc1cccc(NC(=O)CN2CCN(c3ccccc3OC)CC2)c1	3%	>57

Copied from the list.
Result for Clc1ccc([C@H](Cn2ccnc2)OCc2csc3c(Cl)cccc23)c(Cl)c1 in SmPrx2 inh: >57
Result for CN(C)c1cc2c(Nc3ccc4c(cnn4Cc4ccccc4)c3)ncnc2cn1 in SmPrx2 inh: >57
Result for Cc1c(C(=O)NCc2ccc3c(c2)OCO3)oc2ccc(S(=O)(=O)N3CCC(C)CC3)cc12 in Anthrax LT inh: -14%
Result for c1ccc(OCc2nc3ccccc3s2)cc1 in Anthrax LT inh: -17%
Result for O=C(CCS(=O)(=O)c1cccc2nsnc12)N1CC(=O)N(CCc2ccccc2)C(=O)C1 in Anthrax LT inh: -3%

Next part:
SMILES	Anthrax LT inh	SmPrx2 inh
O=C(Cn1cnc2c(nnn2-c2ccc(F)cc2)c1=O)N1CCCc2ccccc21	-13%	>57
O=C(NCC(c1cccnc1)N1CCOCC1)c1ccco1 (configuration not stated)	2%	>57
COc1ccc(C[C@H](C)NC[C@@H](O)c2ccc(O)c(NC=O)c2)cc1	?	>57
O=C(O)CSCNC(=O)CC12CC3CC(CC(C3)C1)C2	7%	>57
CCOC(=O)N1CCC(NC(=O)c2cc(C(=O)NCc3cccc(Cl)c3)ccc2CO)CC1	1%	>57
CC(=O)Nc1ccc(OCC(O)CN2CCN(c3ccc(C)c(Cl)c3)CC2)cc1 (configuration not stated)	-5%	>57
Cc1cc2cc(CN(CCN3CCOCC3)C(=O)Nc3ccccc3F)c(=O)[nH]c2cc1C	-9%	>57
O=S(=O)(c1ccccc1)N1CCC[C@@]2(CCN(c3ncccn3)C2)C1	7%	>57
Cc1nnc2n1-c1ccc(Br)cc1C(c1ccccc1Cl)=NC2	-16%	>57
COc1ccc2c(c1OC)C(=O)N(c1cccc(C)c1)C2	-19%	>57
O=C(CCS(=O)(=O)c1cccs1)N1CCN(c2ccc(F)cc2)CC1	?	>57
CC(C)=CCC/C(C)=C/CO/N=C1/C[C@@H](O)[C@@H](O)[C@@H]2[C@H]3C(=O)N(c4ccc(F)cc4F)C(=O)[C@@H]3CC[C@@H]12	-4%[8 µM]	.

Molecules listed so far containing a COOH group, in the order listed:
SMILES	Anthrax LT inh	SmPrx2 inh
O=C(O)/C=C\C(=O)N1Cc2cc3ccccc3nc2C1	5%[8 µM]	>57
NCCC[C@@](N)(C(=O)O)C(F)F	-3%	>57
O=C(O)CSCNC(=O)CC12CC3CC(CC(C3)C1)C2	7%	>57

Next records
SMILES	Anthrax LT inh	SmPrx2 inh
COc1cccc(-c2nnc(SCC(=O)N3CCCC3=O)n2-c2ccccc2)c1	-6%	>57
CCn1c(SCC(=O)Nc2cc(C)on2)nc2c1c(=O)n(C)c(=O)n2C	-8%	>57
CC(C)(C)NC(=O)C1CCN(C(=O)c2ccc(Br)cc2)CC1	8%	>57
O=C(NCc1ccc2c(c1)OCO2)c1cc(-c2ccccc2)on1	-3%	>57
COc1ccc(Oc2ncc3nc(-c4ccc(OC)cc4)c(=O)n(CCC#N)c3n2)cc1	?	>57
COc1ccc(CN2CCCCC2c2cccnc2)cc1C (configuration not stated)	-24%	.
O=C(Nc1ccccc1)c1ccc(S(=O)(=O)N2CCCCC2)cc1	-23%	>57
CCNc1nc(Cl)nc(NC(C)C)n1	-1%	.
O=C(c1cccc(F)c1)n1nnc2ccccc21	?	>57
CCCn1c(=O)c2ccccc2n2c(SCC(=O)NCc3cccs3)nnc12	10%	>57
CCOC(=O)N1CCN(Cc2oc(CO)cc(=O)c2O)CC1	14%	>57
Cc1c(C(=O)O)oc2ccc(S(=O)(=O)N(CC(C)C)CC(C)C)cc12	-3%	>57
CNC(=O)CC(C(=O)O)c1ccc(OCC(C)C)cc1 (configuration not stated)	-11%	>57
CN1CCN(c2ncc3nc(-c4cccc(C#N)c4)c(=O)n(C[C@H]4CCCO4)c3n2)CC1	1%	>57
CCc1nnc(NC(=O)C(NS(=O)(=O)c2ccc3c(c2)OCCO3)C(C)C)s1 (configuration not stated)	1%	>57
Cc1ccc(O)c(-c2cc(-c3ccccc3C)[nH]n2)c1	?	>57
COc1cccc(Cn2c(=O)c(-c3ccc(F)cc3)nc3cnc(N4CCOCC4)nc32)c1	?	>57
CCOC(=O)c1sc2ncn(/N=C/N(C)C)c(=O)c2c1C	3%	>57
Cc1ccc(N(CC(N)=O)C2SC(=O)N(Cc3ccccc3)C2=O)cc1 (configuration not stated)	-6%	>57
O=C(Cn1cnc2c(cnn2-c2ccc(F)cc2)c1=O)N1CCN(c2ccccc2F)CC1	-1%	>57
O=C(c1ccc2c(c1)OCO2)N1CCN=C1SCc1cccnc1	7%	>57
COC(=O)[C@H]1C[C@@H]1[C@H](NC(C)=O)c1ccccc1	9%	>57
CC1CN(C(=O)c2cn3ccccc3n2)CC(C)O1 (configuration not stated)	-8%	>57
CCn1nc(C(=O)OC2CCOC2=O)c2ccccc2c1=O (configuration not stated)	14%	>57

Next section (three carried over from the part before).
SMILES	Anthrax LT inh	SmPrx2 inh
COC(=O)[C@H]1C[C@@H]1[C@H](NC(C)=O)c1ccccc1	9%	>57
CC1CN(C(=O)c2cn3ccccc3n2)CC(C)O1 (configuration not stated)	-8%	>57
CCn1nc(C(=O)OC2CCOC2=O)c2ccccc2c1=O (configuration not stated)	14%	>57
O=c1c(O)c(-c2ccc(O)cc2)oc2cc(O)ccc12	?	>57
C=CCn1c(=N)n(CC(O)COc2ccccc2OC)c2ccccc21 (configuration not stated)	-13%	>57
CC(C)Oc1ccc(C(=O)NCc2ccco2)cc1	3%	>57
O=S(=O)(Nc1ncccn1)c1ccc(Nc2ncnc3ccccc23)cc1	0%	>57
Cc1nc2cncc(Br)c2n1C	1%	>57
Cc1ccc(N2C(=O)Nc3ccc(Br)cc3C2(O)C(=O)NCCCN(C)C)cc1C (configuration not stated)	-5%	>57
O=NN(c1ccccc1)c1ccccc1	-12%	.
Cc1c(Cl)cccc1N1C(=O)c2ccccc2C1=O	16%	.
O=C(NC1CCCCCCC1)C1CCN(S(=O)(=O)N2CCCC2)CC1	?	>57
Cc1cc(NC(=O)CSc2c(C)[nH]c3ccccc23)no1	4%	>57
COc1cccc(-c2cc(NCc3cnc(C)cn3)ncn2)c1	19%	>57
CCOC(=O)c1sc(NC(=O)CSc2nnnn2-c2ccc(C)cc2)c(C(=O)OCC)c1C	-5%	>57
Cn1c(C(=O)NCCN2CCN(c3ccccc3F)CC2)cc2c(=O)n(C)c3ccccc3c21	-6%	>57
Cc1sc2nnn(CC(=O)N3CCN(C(=O)c4ccco4)CC3)c(=O)c2c1C	1%	>57
COc1ccc(-c2csc(Cc3nnc(N4CCOCC4)n3-c3ccccc3)n2)cc1	0%	>57
COC(=O)[C@@]1(Cc2ccc(OC)cc2)[C@H]2c3cc(C(=O)N4CCCC4)n(CCc4ccc(O)c(OC)c4)c3C[C@H]2CN1C(=O)c1ccccc1	?	>57
CCCC[C@@H]1C[C@H]1C(NC(=O)Cc1ccccc1)c1ccc(-c2ccccc2)cc1 (some centres not stated)	-25%	>57
CC(C(=O)Oc1ccc2c(c1)OCO2)N1C(=O)c2ccccc2C1=O (configuration not stated)	1%	>57
C[N+]1(CCCC[N+]2(C)CCCCCCC2)CCCCCCC1	4%[8 µM]	>57
COc1ccc(CC(=O)Nc2c3c(nn2-c2cccc(Cl)c2)CS(=O)C3)cc1 (configuration not stated)	-1%	>57
COCCn1c(=O)c(CCc2ccccc2)nc2cnc(OC)nc21	1%	>57
Cc1csc(NC(=O)CSc2nnc(Cn3c(=O)sc4ccccc43)n2-c2ccccc2)n1	-13%	>57
COc1ccc2cc(CCNC(=O)c3ccc4c(c3)OCO4)c(=O)[nH]c2c1	12%	>57
CC(=O)Nc1ccc(NC2=CC(=O)CC(C)(C)C2)cc1	-2%	.
O=C(CCN1C(=O)c2ccccc2C1=O)Nc1ccc(S(=O)(=O)N2CCOCC2)cc1	.	>57
O=C(c1ccco1)N1CCN(S(=O)(=O)c2cccc3nsnc23)CC1	8%	>57
O=S(=O)(NCC1CCCO1)c1cccc2nsnc12 (configuration not stated)	-12%	.
O=C(NCc1ccco1)c1cc2c(s1)CSC2	-13%	.
CCCC(C(=O)NCC1CCCO1)N(Cc1ccco1)C(=O)CNS(=O)(=O)c1ccccc1 (configuration not stated)	3%	>57
O=C(c1ccccc1)N1CCCC(C(=O)N2CCCCCC2)C1 (configuration not stated)	.	>57
Cc1ccc(SCc2[nH]nc3c2C2(CCSCC2)C(C#N)=C(N)O3)cc1	6%	>57
Clc1ccc2[nH]c3c(NCC4CCCO4)ncnc3c2c1 (configuration not stated)	.	>57
COc1cccc(-c2nn(C)c3sc(C(=O)N4CCN(c5ccccc5)CC4)cc23)c1	?	>57
CN(C)CCCO[C@H]1[C@@H]2OC(C)(C)O[C@@H]2O[C@@H]1[C@H](O)CO	-2%[3.58 µM]	>57
COCCN(CC(=O)NCC1CCCO1)C(=O)CCC(=O)Nc1cc(C)on1 (configuration not stated)	2%	>57
N#CCCn1c(=O)c(-c2cccs2)nc2cnc(Nc3ccccc3)nc21	7%	>57
COc1cccc(Cn2c(=O)c(-c3ccccc3)nc3cnc(N(C)C)nc32)c1	?	>57
CCCN1C(=O)C(O)(C/C(C)=N/O)c2ccccc21 (configuration not stated)	-1%	>57
Cc1ccc(S(=O)(=O)c2c(C)nn(C(C)(C)C)c2OC(=O)c2ccc(Br)o2)cc1	?	>57
